Source: PubChem BioAssay (ICCB-Longwood Screening Facility, Harvard Medical School)
RVFV N-RNA FP: blocks Rift Valley Fever Virus nucleoprotein binding to RNA; 20,000 compounds, 0.1% hits; RVFV N-RNA binding, fluorescence polarization; hits give low values; % bound, % (test concentration not listed);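 active means between 0 and 58% in either replicate with normal brightness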;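 further: 100 nL library stock added to about 12 µL; 100% = protein and probe without compound and 0% = probe alone; numbers are from one replicate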
Target sequence (P21700 whole entry, looked up): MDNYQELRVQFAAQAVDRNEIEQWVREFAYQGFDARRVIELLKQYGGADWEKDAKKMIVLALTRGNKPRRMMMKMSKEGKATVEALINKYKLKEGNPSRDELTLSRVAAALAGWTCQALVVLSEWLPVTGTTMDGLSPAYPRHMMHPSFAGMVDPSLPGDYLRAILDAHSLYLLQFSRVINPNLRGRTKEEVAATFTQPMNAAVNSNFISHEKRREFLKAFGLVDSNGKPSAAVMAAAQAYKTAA
Numbers without * were called inactive; & = joins results of further samples. Only part of the results is shown. The share of hits here may be higher or lower than overall.

The opening 3 compounds (preview)
SMILES | RVFV N-RNA FP
CCN(CC)c1ccc(-n2nc3cc(C)c(N)cc3n2)cc1 | 98.2
Cc1ccc(N(C(=O)Nc2c(-c3c(Cl)cccc3Cl)noc2C)S(C)=O)cc1 (centres undefined) | 93.2
Cc1cc(C)nc(N/C=C(\C#N)S(=O)(=O)c2ccccn2)n1 | 98.0

All compounds of this part, from the start:
SMILES | RVFV N-RNA FP
CCN(CC)c1ccc(-n2nc3cc(C)c(N)cc3n2)cc1 | 98.2
Cc1ccc(N(C(=O)Nc2c(-c3c(Cl)cccc3Cl)noc2C)S(C)=O)cc1 (centres undefined) | 93.2
Cc1cc(C)nc(N/C=C(\C#N)S(=O)(=O)c2ccccn2)n1 | 98.0
OCCSCCc1ccncc1 | 95.1
CC(C)N(C(=S)NCc1ccccc1)C(C)C | 93.2
O=C(CN1C(=O)S/C(=C\c2ccco2)C1=O)Nc1ccc(O)c(C(=O)O)c1 | 104.9
CCOc1ccc(N/C=C/C(=O)c2ccco2)cc1 | 113.0
O=C1CSCC(=O)N1c1csc(C(F)(F)F)c1-c1ccccc1 | 95.2
O=c1c2cnn(-c3ccccc3)c2ncn1Cc1cccnc1 | 97.8
CN(C)CCNC(=O)c1ccc(/C=C2\SC(=S)N(C)C2=O)cc1 | 90.4
C=CCN(CC=C)C(=O)c1ccc(N2C(=O)CCC2=O)cc1 | 95.1
CC(C)(C)NC(=O)c1ccncc1 | 89.9
NNC(=O)c1nc(COc2ccccc2Cl)no1 | 97.1
CC[C@H](C)[C@H]1O[C@]2(CC[C@@H]1C)C[C@@H]1C[C@@H](C/C=C(\C)[C@@H](O[C@H]3C[C@H](OC)[C@@H](O[C@H]4C[C@H](OC)[C@@H](O)[C@H](C)O4)[C@H](C)O3)[C@@H](C)/C=C/C=C3\CO[C@@H]4[C@H](O)C(C)=C[C@@H](C(=O)O1)[C@]34O)O2 | 98.0
Cc1[nH]c2ccccc2c(=O)c1CO | 93.9
O=c1[nH]cc(C(F)(F)F)c(=O)[nH]1 | 89.2
O=C(NC1CC1)c1ccccc1I | 99.5
CC(C)(C)S(=O)(=O)c1cnc(-c2ccc(Cl)cc2)nc1N | 96.1
CCOC(=O)COc1c(/C=C2\SC(=S)N(Cc3ccco3)C2=O)cccc1OC | 110.4
CN(C)CCn1c2c(c(SCC(=O)Nc3ccccc3)nc1=O)CCCC2 | 94.4
CCCN1CCC[C@@H](c2cccc(O)c2)C1 | 94.7
CCOC(=O)/C(C#N)=C/c1ccc(-c2cccs2)s1 | 18.8*
NCC1OC(O[C@@H]2[C@H](O)C(OC3C(O)C(N)CC(N)C3OC3OC(CO)C(O)C(O)C3N)O[C@@H]2CO)C(N)C(O)C1O (some centres undefined) | 97.2
Nc1nc(Nc2ccc(Cl)c(Cl)c2)nc(-c2cc3ccccc3o2)n1 | 101.3
COc1cc(CO)ccc1OCC(=O)NC1CCCCC1 | 94.6
Cc1ccc(-c2nc3ccc(C)cn3c2CC(=O)N(C)C)cc1 | 87.9
O=C(CCc1ccccc1)Oc1ccc(F)cc1 | 105.3
CC(C)(C)c1cc2nc(C(F)(F)F)cc(N3CCN(C(=O)Nc4ccccc4)CC3)n2n1 | 97.3
O=C(NCCC1CCCCN1S(=O)(=O)c1ccccc1)Nc1ccccc1 (centres undefined) | 96.8
O=C1CN(c2ccccc2)C(=O)C1C(=O)NCc1ccccc1 (centres undefined) | 112.5
CC(c1ccccc1)N1CCC(=O)C2=C1CCCC2 (centres undefined) | 91.6
CC(C)NC(=O)CSc1nc2ccccc2c(=O)n1-c1ccccc1 | 90.1
CCN(CC)CCCOc1ccc(C)cc1C | 97.4
O=C(c1ccc(S(=O)(=O)N2CCCCC2)cc1)N(c1ccccc1)C1C=CS(=O)(=O)C1 (centres undefined) | 99.9
O=C(NC1CCCCCC1)C(F)(F)F | 90.5
O=c1[nH][nH]c(=O)c2c(N=Cc3c[nH]c4ccccc34)cccc12 | 95.5
COc1ccccc1CCNC(=O)c1cnn2c(C(F)F)cc(C)nc12 | 94.7
CC(=O)Nc1cc2c3c(c1)CC(=O)N3CCC2 | 92.6
Cc1ccc(CCC(N)=O)o1 | 87.2
Cc1nnc(SC/C=C/c2ccccc2)[nH]c1=O | 86.1
CCOC(=O)C1(C2(O)C(=O)c3ccccc3C2=O)CCCC1=O (centres undefined) | 94.1
Cc1ccc(N2CC(=O)Nc3c(oc4nc(-c5ccccc5)cc(C)c34)C2=O)cc1 | 102.9
COc1ccc(S(=O)(=O)c2ccc(O)cc2)cc1 | 97.1
Clc1ccc(OCCN2CCCC2)c2ccccc12 | 101.6
O=c1[nH]cc(S(=O)(=O)N(Cc2ccccc2)Cc2ccccc2)c(=O)[nH]1 | 98.4
O=C(Nc1ccc(C(F)(F)F)cc1)c1cnc2ccccc2n1 | 91.4
COc1cc2c(cc1OC)CN(Cc1cccs1)CC2 | 96.3
O=C(NCCCN1CCCC1=O)c1cccnc1 | 89.0
O=C(Nc1ccccc1)Nc1cccc(F)c1 | 85.5
CC1=NN(C)c2nc3c(c(=O)n(C)c(=O)n3C)n2C1 | 93.0

(continued)
SMILES | RVFV N-RNA FP
N#C/C(=C(/N)Sc1ccc(N)cc1)c1ccccc1C(F)(F)F | 101.8
COC(=O)c1ccc2c(c1)N(C)S(=O)(=O)/C(=C\N(C)C)C2=O | 95.3
O=C(NNc1nc2ccccc2s1)Nc1ccccc1 | 100.3
N#Cc1ccc(Oc2ccccc2)cc1C#N | 89.0
FC(F)(F)c1ccccc1-n1c(-c2ccco2)n[nH]c1=S | 99.8
COc1ccccc1CNC(=O)c1ccccc1N(C)S(C)(=O)=O | 98.5
CC(C)c1ccc(C(=O)Nc2ccccc2C#N)cc1 | 85.0
CC(C)N1C(=O)CNC1=S | 98.0
NC(=O)c1ccccc1Nc1cccc(C(F)(F)F)c1 | 93.8
Cc1ccc(NC(=O)CSCC(N)=O)cc1C | 97.4
O=C(Nc1ccccc1)NN1CC(=O)N(c2cccc(C(F)(F)F)c2)CC1=O | 97.2
NCCNS(=O)(=O)c1cccc2c(Cl)cccc12 | 97.2
Cc1nc2ccc(Cl)cc2c2c1CCS2 | 100.4
CCCCN(C)C1CCN(Cc2ccccc2)CC1 | 101.1
CC(=O)Nc1ccc(-c2ccc3nnc(C)n3n2)cc1 | 95.4
COc1ccc(CCNC(=O)/C=C2\SC(=O)NC2=O)cc1 | 99.4
CN(C(=O)C1(c2cccs2)CCOCC1)c1ccccc1 | 100.3
CC1=NNC(=O)C1C(c1cccc(F)c1)C(C#N)C#N (centres undefined) | 90.0
CCN(CCO)C(=O)CCN1C(=O)/C(=C\c2ccco2)SC1=S | 97.7
Cc1ccc(SCC(=O)N2CCOCC2)cc1 | 97.1
CCOC(=O)C1CCCN(C(=S)NC2CCCC2)C1 (centres undefined) | 109.5
Cc1nc2ccc(NC(=O)CS(=O)(=O)c3ccc(F)cc3)cc2s1 | 94.6
COc1ccc2c(c1)/C(=C/c1cnc[nH]1)C(=O)N2 | 105.3
Cc1ccc(N2CCN(Cc3sccc3C)CC2)cc1 | 97.2
O=c1ccc2ccc(O)c(O)c2o1 | 105.6
CCOC(=O)C(Sc1nc2c(c(=O)[nH]1)CCCC2)c1ccccc1 (centres undefined) | 93.6
Cn1ccnc1SCc1nc2ccccc2c(=O)[nH]1 | 87.6
CCSc1nc2ccccc2c(=O)n1C | 96.2
Oc1[nH]c2ccccc2c1C=Nc1ccc2cn[nH]c2c1 | 92.8
CC(Oc1ccccc1)C(=O)Nc1ccccc1C(=O)N1CCOCC1 (centres undefined) | 91.6
CC1(C)C(c2ccccc2)=[N+]([O-])C(C(=O)O)N1O (centres undefined) | 92.2
Cc1nnsc1C(=O)NC(=O)Nc1ccc(F)c(Cl)c1 | 97.4
O=C(CSc1nc2ccccc2o1)NCC1CCCO1 (centres undefined) | 93.4
O/N=C1/CCCc2occc21 | 106.9
N#CCCN(Cc1cccs1)S(=O)(=O)c1ccc2c(c1)CCO2 | 84.3
N#C/C(=C\c1ccc(O)c(O)c1)C(=O)NCc1ccccc1 | 100.2
COCCCNC1=C(C#N)C(=O)NC(c2cccs2)S1 (centres undefined) | 98.2
CC(=O)N(C(C)=O)c1c(N2CCOCC2)c2ccccc2oc1=O | 92.4
COC(=O)COc1ccc(NC(=O)c2ccccc2C)cc1 | 96.0
CCOC(=O)N/N=C1\CCCc2ccccc21 | 98.2
FC(F)(F)c1ccccc1NC(=S)N1CCC2(CC1)OCCO2 | 102.0
CSc1sc(C(=O)NC(=O)Nc2ccc(Cl)cc2)c2c1-c1nocc1CC2 | 93.9
Cc1nc2c(c(=O)c3ccccc3n2C)c(=O)n1Cc1ccco1 | 99.5
Cc1cc(CNS(=O)(=O)c2ccc(N3CCOCC3)nc2)c(C(F)(F)F)o1 | 94.9
C#CCOc1cccc(C=Nn2cnnc2)c1 | 93.3
C(=C\c1ccccc1)/CSc1nnc(COc2ccccc2)n1Cc1ccco1 | 99.3
Cc1cc2ncc(-c3ccccc3)nc2cc1C | 106.6
COc1ccc(-c2nc(SC(CC(=O)NCc3ccco3)c3cc(OC)c(OC)c(OC)c3)n[nH]2)cc1 (centres undefined) | 98.6
O=C1CSC(=O)N1c1ccccc1 | 98.9
O=S(=O)(c1ccc(-c2ccccc2)cc1)N1CCCC1 | 87.1

Later entries:
SMILES | RVFV N-RNA FP
O=C(O)c1ccccc1C(=O)NCC(O)c1ccccc1 (centres undefined) | 96.5
O=C(CN1CCOCC1)N/N=C/c1ccccc1 | 97.2
Cc1noc(C)c1C(=O)c1c(C)[nH]n(-c2ccccc2)c1=O | 103.0
O=C1c2ccccc2C(=O)C1c1ccc(Cl)cc1 | 97.2
COc1ccc(C(C)NC=O)cc1OC (centres undefined) | 94.7
C/C(=N\N=C(/C)c1cccs1)c1cccs1 | 99.9
c1ccc(-c2nn(-c3ccccc3)[n+](-c3nnn[n-]3)n2)cc1 | 94.4
CNC(=S)Nc1ccc(OC)c(OC)c1 | 89.6
COc1ccccc1-n1c2nc3ccccc3nc2c2c(=O)n(C3CCCC3)cnc21 | 100.4
CC1=NN(c2cc(C)nc(-c3ccccc3O)n2)C(=O)C1 | 90.0
Cc1csc(SCC(=O)N2CCCC2)n1 | 98.3
Cc1ccc(N2C(=O)CS/C2=N\C(=O)Nc2ccccc2)c(C)c1 | 98.3
COc1ccc2cc([C@H](C)C(=O)O)ccc2c1 | 101.1&96.4&95.3
Oc1cc2c(cc1O)[C@H]1c3ccccc3CN[C@@H]1CC2 | 96.7
N#Cc1cccc(NC(=O)CSc2ccccc2)c1 | 89.4
CC(=O)Nc1ccc(NC(C)=O)c(C(F)(F)F)c1 | 92.4
CCOC(=O)c1noc(C)c1-c1csc(Nc2cc(C(F)(F)F)cc(C(F)(F)F)c2)n1 | 88.0
Cc1nc2ccc3c(c2s1)CCCC3 | 85.1
O=C1/C(=N\O)CC(OC(=O)c2ccccc2)C/C1=N/O (centres undefined) | 97.6
CNC(=O)c1cc(S(=O)(=O)N2CCCc3ccccc32)ccc1C | 93.0

A different layout for some results above.
mol,RVFV N-RNA FP
O/N=C1/CCCc2occc21,106.9
N#CCCN(Cc1cccs1)S(=O)(=O)c1ccc2c(c1)CCO2,84.3
N#C/C(=C\c1ccc(O)c(O)c1)C(=O)NCc1ccccc1,100.2
COCCCNC1=C(C#N)C(=O)NC(c2cccs2)S1 (centres undefined),98.2
CC(=O)N(C(C)=O)c1c(N2CCOCC2)c2ccccc2oc1=O,92.4
COC(=O)COc1ccc(NC(=O)c2ccccc2C)cc1,96.0
CCOC(=O)N/N=C1\CCCc2ccccc21,98.2
FC(F)(F)c1ccccc1NC(=S)N1CCC2(CC1)OCCO2,102.0
CSc1sc(C(=O)NC(=O)Nc2ccc(Cl)cc2)c2c1-c1nocc1CC2,93.9
Cc1nc2c(c(=O)c3ccccc3n2C)c(=O)n1Cc1ccco1,99.5
Cc1cc(CNS(=O)(=O)c2ccc(N3CCOCC3)nc2)c(C(F)(F)F)o1,94.9
C#CCOc1cccc(C=Nn2cnnc2)c1,93.3
C(=C\c1ccccc1)/CSc1nnc(COc2ccccc2)n1Cc1ccco1,99.3
Cc1cc2ncc(-c3ccccc3)nc2cc1C,106.6
COc1ccc(-c2nc(SC(CC(=O)NCc3ccco3)c3cc(OC)c(OC)c(OC)c3)n[nH]2)cc1 (centres undefined),98.6
O=C1CSC(=O)N1c1ccccc1,98.9
O=S(=O)(c1ccc(-c2ccccc2)cc1)N1CCCC1,87.1
O=C(O)c1ccccc1C(=O)NCC(O)c1ccccc1 (centres undefined),96.5
O=C(CN1CCOCC1)N/N=C/c1ccccc1,97.2
Cc1noc(C)c1C(=O)c1c(C)[nH]n(-c2ccccc2)c1=O,103.0
O=C1c2ccccc2C(=O)C1c1ccc(Cl)cc1,97.2
COc1ccc(C(C)NC=O)cc1OC (centres undefined),94.7
C/C(=N\N=C(/C)c1cccs1)c1cccs1,99.9
c1ccc(-c2nn(-c3ccccc3)[n+](-c3nnn[n-]3)n2)cc1,94.4
CNC(=S)Nc1ccc(OC)c(OC)c1,89.6
COc1ccccc1-n1c2nc3ccccc3nc2c2c(=O)n(C3CCCC3)cnc21,100.4
CC1=NN(c2cc(C)nc(-c3ccccc3O)n2)C(=O)C1,90.0
Cc1csc(SCC(=O)N2CCCC2)n1,98.3
Cc1ccc(N2C(=O)CS/C2=N\C(=O)Nc2ccccc2)c(C)c1,98.3
COc1ccc2cc([C@H](C)C(=O)O)ccc2c1,101.1&96.4&95.3
Oc1cc2c(cc1O)[C@H]1c3ccccc3CN[C@@H]1CC2,96.7
N#Cc1cccc(NC(=O)CSc2ccccc2)c1,89.4
CC(=O)Nc1ccc(NC(C)=O)c(C(F)(F)F)c1,92.4
CCOC(=O)c1noc(C)c1-c1csc(Nc2cc(C(F)(F)F)cc(C(F)(F)F)c2)n1,88.0

Next section.
SMILES | RVFV N-RNA FP
CCOC(=O)O[C@]1(C(=O)OCCl)CC[C@H]2[C@@H]3CCC4=CC(=O)C=C[C@]4(C)[C@H]3[C@@H](O)C[C@@]21C | 93.9
FC(F)(F)COc1ccc(-c2nc(-c3ccc(Cl)cc3)no2)cn1 | 90.5
CC(=O)NC(Nc1ccc(S(N)(=O)=O)cc1)(C(F)(F)F)C(F)(F)F | 98.0
CNC(=O)N1c2ccccc2NC(=O)CC1C (centres undefined) | 107.7
CC(C)CC(=O)Nc1ccccc1NC(=O)CC(C)C | 92.7
